NPYLR7 agonist: activates Aedes aegypti NPYLR7 receptor; AID 1259423; activation, % at 10 µM; HEK293T NPYLR7/Galpha15, GCaMP6s calcium fluorescence; 0.15% of 270,000 active; in the data active = activation above about 40%;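 note: 0% = vehicle and 100% = reference agonist at the receptor; some compounds past the cut are filed as inactive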
NPYLR7 agonist max-min: further read-out of NPYLR7 agonist, marked with its call; activation, %; measured here: Max-Min RFU normalised activation; some inactives read as strong as hits;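 span of the calcium signal over five minutes; 0% = vehicle and 100% = native peptide agonist; compound fluorescence can raise it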
* marks the source's active call; other numbers are inactive results; & = joins results of further samples. An excerpt. The share of hits here may be higher or lower than overall.

Compound	NPYLR7 agonist	NPYLR7 agonist max-min
COc1cc(OC)c(C(=O)Nc2nc3ccccc3s2)cc1OC	1	-3
O=C1CC(N2CCOCC2)C(=O)N1C1CCCC1 (stereo not drawn)	3	2
Cc1ccccc1C(=O)Nc1sc2c(c1C(N)=O)CCCC2	-7	-11
Cc1ccc(C)c(-n2nnnc2SCC(=O)c2cc(F)ccc2F)c1	1	8
COc1cc(OC)cc(C(=O)N2CC(=O)N3CCc4c(F)cccc4C3C2)c1 (stereo not drawn)	-2	11
CC(C)Cn1nc(C(=O)NC2CCCC2)c2c1CCN(C(=O)c1ccccc1-n1cccn1)C2	22	8
C=CCSc1nc(=O)n2ccc(C)cc2n1	2	-3
Cc1cnc(CCNC(=O)NC(CO)c2ccccc2)s1 (stereo not drawn)	-2	-1
COc1cc(C(=O)NC2(Cc3ccc(C)cc3)CC2)ccc1O	24	14
COc1ccc(C(NC(=O)C2CCN(CCc3c[nH]c4ccccc34)CC2)c2ccccn2)cc1 (stereo not drawn)	9	0
Cc1ccc(C)n1CCCC(=O)NCc1ccc(S(N)(=O)=O)cc1	-1	-3
C=CCNC(=O)NCc1ccc(Br)cc1F	13	11
COC(=O)CC(=O)N1CCN(c2c(Cc3ccccc3)c(C)nc3ncnn23)CC1	5	2
CCCc1ccc(-c2nccn2CCN2CCCC2=O)o1	2	0
Cc1nc(CN2CC(OCc3ccncc3)CN(Cc3ccoc3)CC2=O)cs1 (stereo not drawn)	-4	-6
CCOC(=O)NC(Nc1nnc(SCC)s1)(C(=O)OCC)C(F)(F)F (stereo not drawn)	-1	-6
CNCc1cc(-c2ccc(-c3ccn[nH]3)cc2)ccc1OC	-1	15
CC(C)(C(=O)N1CCN(C(=O)c2ccc[nH]2)CC1)c1ccccc1	1	0
CCc1nnc(NS(=O)(=O)c2ccccc2Cl)s1	-4	-5
Cc1nc2c(c(=O)[nH]1)CCN(C(=O)[C@]13CC[C@](C)([C@@H](O)C1)C3(C)C)CC2	6	3
Cc1ccc(NC2CCCN(C(=O)Cc3ccc4c(c3)NC(=O)CO4)C2)cc1C (stereo not drawn)	1	-6
Cc1nc(CN(C)C(=O)c2cc(COc3ccc(-n4cncn4)cc3)on2)cs1	-4	-9
O=C(CCC(=O)N1CCN[C@H]2CS(=O)(=O)C[C@H]21)NC1CCCC1	12	10
COc1cccc(N(C(=O)C2CCCO2)c2nc3ccccc3s2)c1 (stereo not drawn)	-1	-1
CCCn1c(N)c(C(=O)CN(C)Cc2ccc(Cl)s2)c(=O)n(C)c1=O	4	13
Cn1c(NNC(=O)c2cc(Br)ccc2Cl)cc(=O)n(C)c1=O	6	5
Cc1ccc2[nH]cc(CN3CCC(c4ccnc(-c5ccncc5)c4)C3)c2c1 (stereo not drawn)	4	-1
Cc1ccccc1-c1csc(C(O)c2cccnc2)n1 (stereo not drawn)	6	3
Cc1cc(C(=O)N2CCN(Cc3ccc(-c4noc(-c5ccco5)n4)cc3)CC2)no1	4	12
O=C(NC1CC1)C(C1CCCC1)N1CCN(C(=O)c2ccccc2Cl)CC1 (stereo not drawn)	-6	-4
COc1ccccc1-c1[nH]nc2nccc(-c3ccc(C(N)=O)cc3)c12	2	-1
Cc1ccc(CN2C(=O)C(C)Sc3ccc(C(F)(F)F)cc32)cc1 (stereo not drawn)	2	2
Fc1ccc(CN2CCC(CCc3ccc(C(F)(F)F)cc3)CC2)cc1C(F)(F)F	0	-5
Cc1cccc(NC(=O)CCC2CCN(S(=O)(=O)c3ccc(Cl)cc3)CC2)c1	12	0
CCn1nc(C(C)C)cc1C(=O)N1C[C@H](O)C[C@H]1C(=O)OC	14	10
CCCCCCCCCCCCCC(=O)N(CC(=O)N1c2ccccc2-n2cccc2C1c1ccc(OC)cc1)C1CC1 (stereo not drawn)	8	10
Cc1cc(C)c2c(n1)nn1c(NC(C)C)cc(C)nc21	0	10
Cc1nc(CNC2(CNC(=O)OC(C)(C)C)CCCCC2C)no1 (stereo not drawn)	4	4
O=C1CC(C(=O)OCc2cc(-c3ccco3)on2)c2ccc(F)cc2N1 (stereo not drawn)	0	-1
NC(=O)c1ccc(OCCCOCC(F)(F)F)cc1	3	4
Oc1ccc(C2=Nn3c(nnc3-c3cccc(F)c3)SC2)cc1O	0	0
NC(=O)c1c(NC(=O)c2noc3c2CCCC3)sc2c1CCCC2	3	2
CC(Sc1nnc2n1CCN2c1ccccc1)c1ccccc1 (stereo not drawn)	0	1
COc1ccccc1Oc1nnnn1-c1ccccc1	-3	-6
O=C1C(C(c2ccccc2F)N2CCC3(CC2)OCCO3)Sc2nc(-c3ccco3)nn21 (stereo not drawn)	7	9
COCCCNC(=O)c1nn(-c2cccc(C)c2)c(=O)n(Cc2cccc(Cl)c2)c1=O	13	11
COc1ccc(C(=O)NCc2ccccc2)cc1S(=O)(=O)N1CCOCC1	6	-1
CCCNC(=O)c1ccccc1N1CCC(NS(=O)(=O)c2ccccc2)CC1	-1	7
O=C(Nc1nccn1CC1CC1)c1cc(F)c(Cl)cc1Cl	7	7
C=C1c2ccccc2NC(=O)N1CC(c1c(F)cccc1Cl)N(C)C (stereo not drawn)	1	1

Carrying on.
Compound	NPYLR7 agonist	NPYLR7 agonist max-min
COc1ccc(C(N)P(=O)(O)O)cc1O (stereo not drawn)	-4	-7
COc1ccccc1OCCCOc1cccc(Cl)c1	16	5
CC(O)c1cnc(-c2ccc(Br)cc2)s1 (stereo not drawn)	6	4
Cc1cccc(-n2c(SCc3ccc(Cl)c(Cl)c3)nnc2-c2ccccc2F)c1	1	3
CCOc1ccc(CN(Cc2cccc(C(F)(F)F)c2)Cc2nc(C(=O)NCCOC)co2)cc1	17	25
Fc1ccc(CN2CCCC(OCc3cccnc3)C2)c(F)c1F (stereo not drawn)	2	4
O=[N+]([O-])c1ccc(-c2nc(-c3ccccc3Cl)no2)cc1	-2	-6
COCCn1ccc2cc(NC(=O)N3CCCC(C)C3)ccc21 (stereo not drawn)	-25	-25
CC1CCN(Cc2cc(=O)oc3cc(-c4ccccc4)c(O)cc23)CC1	4	4
CCNC(=O)Nc1ccc(N(C)C)c(CN(Cc2ccco2)C(=O)C(CC)c2ccccc2)c1 (stereo not drawn)	1	7

A run of entries of the results above:
Compound	NPYLR7 agonist	NPYLR7 agonist max-min
CC(O)c1cnc(-c2ccc(Br)cc2)s1 (stereo not drawn)	6	4
Cc1cccc(-n2c(SCc3ccc(Cl)c(Cl)c3)nnc2-c2ccccc2F)c1	1	3
CCOc1ccc(CN(Cc2cccc(C(F)(F)F)c2)Cc2nc(C(=O)NCCOC)co2)cc1	17	25
Fc1ccc(CN2CCCC(OCc3cccnc3)C2)c(F)c1F (stereo not drawn)	2	4
O=[N+]([O-])c1ccc(-c2nc(-c3ccccc3Cl)no2)cc1	-2	-6
COCCn1ccc2cc(NC(=O)N3CCCC(C)C3)ccc21 (stereo not drawn)	-25	-25
CC1CCN(Cc2cc(=O)oc3cc(-c4ccccc4)c(O)cc23)CC1	4	4

Following part
Compound	NPYLR7 agonist	NPYLR7 agonist max-min
O=C(NCCCc1ccccc1)C1CC12CCN(C(=O)c1cccc(-c3ccccc3F)c1)CC2 (stereo not drawn)	17	5
CN1CCN(C(=O)c2cc(C(F)(F)F)[nH]n2)CC1C(=O)O (stereo not drawn)	6	5
COc1ccc(C)c2sc(N(CCN(C)C)C(=O)c3cc(C)n(C)n3)nc12	1	-2
CCC1CCC(N(C)C(=O)Nc2ccc(C)cc2C)CC1 (stereo not drawn)	0	-2
COc1ccc(CN(C)Cc2c(C)nn(C)c2Cl)c2cccnc12	10	7
COc1ccc(N2C(=O)C3CC=CCC3C2=O)c(OC)c1 (stereo not drawn)	4	13
COc1ccc(C2=NC(=Cc3ccc(OC(F)F)cc3)C(=O)O2)cc1	2	-2
O=S(=O)(c1ccc(F)c(F)c1)N1CCNCC1	-2	-1
CN(Cc1n[nH]c2c1CCC2)C(=O)c1cnn2ccn(C)c12	6	2
Cc1csc(SCC(=O)N(C)C2CCS(=O)(=O)C2)n1 (stereo not drawn)	6	8
COC(=O)c1ccccc1COn1c(=O)c(-c2ccccc2)[n+]([O-])c2ccccc21	21	16
COCC(=O)Nc1ccc(NC(C)C(=O)N2c3ccccc3CC2C)cc1 (stereo not drawn)	4	3
CCOC(=O)c1cnc(-c2ccc(OC)cc2)nc1NCc1cccc(OC)c1OC	-5	-5
CCCN(C)c1cc(Cl)nc(SCc2ccc(C(=O)N3CC(C)OC(C)C3)cc2)n1 (stereo not drawn)	-2	0
CCN(CC)c1cc(Cl)nc(SCc2cccc(C(=O)N3CCc4ccccc4C3)c2)n1	37	32
CC(=O)C12CC3CC(CC(O)(C3)C1)C2	2	9
O=C1C=C2CCN(C(=O)c3ccccc3)CC2CC1 (stereo not drawn)	9	4
CCCOc1nn(CCC)cc1C(=O)Nc1cccc(C(C)=O)c1	-5	-7
NC(=O)c1ccsc1NC(=O)COC(=O)C1=NNC(=O)CC1	-1	-5
CN1N=C(C(=O)NC2(c3ccc(F)cc3)CCCC2)CCC1=O	1	-1
COc1ccc(N2CCN(Cc3nc4c(c(=O)n(C)c(=O)n4C)n3CC(=O)C(C)(C)C)CC2)cc1	11	5
CC(C(=O)NC1CCCCC1)N1CCN(S(=O)(=O)c2c(Cl)cccc2Cl)CC1 (stereo not drawn)	-5	-8
CC(=O)C1OC2C=C3C=CCCC3=CC2O1 (stereo not drawn)	-3	-3
O=S(=O)(NCc1ccccc1)N1CCC(c2nnc3n2CCCCC3)CC1	4	4
COc1ccc2c(c1)CCc1cc(CCC(=O)NCc3cnc(C)cn3)n(CCc3cccc(F)c3)c1-2	33	21
O=C(NCCN=C1NS(=O)(=O)c2ccccc21)c1cccc([N+](=O)[O-])c1	0	-1
CCc1nc(CN(C)C(=O)CSC)no1	3	3
Cc1c(CCNC(=O)CC2C(=O)NCCN2C)c2ccccc2n1-c1ccccc1 (stereo not drawn)	17	7
O=C(C(=O)N1CCC(c2[nH]ncc2-c2ccccc2)CC1)c1cccnc1	-2	-1
Cc1cnc(NCC2CCN(C)C2)nc1-c1cnn(C)c1 (stereo not drawn)	7	2
CCCCCCCCN=C1NC(=O)CS1	11	7
CCCOc1ccc(C(=O)Nc2cccc(-c3nc4cc(C)ccc4o3)c2C)cc1	-5	-3
COc1cccc(-c2cc(C(=O)N3CCN(Cc4ccc5c(c4)OCO5)CC3)nc3cc(C(C)(C)C)nn23)c1	-6&19	2&20
O=C(C1CCN(S(=O)(=O)c2ccccc2C(F)(F)F)CC1)N1CCCc2ccccc21	0&13	-5&7
Cc1cccc2sc(N(CCCN(C)C)C(=O)c3ccc(Cl)s3)nc12	3	3
Cc1c(Cl)c(C(F)(F)F)nn1CC(=O)NCc1cccs1	-8	-8
CCOc1ccc(-c2ccnc(N3CCN(C(=O)c4c(F)c(F)cc(F)c4F)CC3)n2)cc1	11	6
CCOc1ccc(CN2CCN(Cc3ccon3)CC2CCO)cc1 (stereo not drawn)	5	0
c1ccc2c(c1)CC(N1CCCN(Cc3cc4n(n3)CCCNC4)CC1)C2	-4	-10
CCCN(CC(=O)N(Cc1ccc(F)cc1)Cc1ccco1)S(=O)(=O)c1ccc(Cl)cc1	5	10
COc1ccc(C=C(NC(=O)c2cccs2)C(=O)N2CCOCC2)cc1OC	-4	-8
O=C(Nc1cc(Cl)ccc1O)c1cc2nc(-c3ccc(F)cc3)cc(C(F)(F)F)n2n1	-9	-17
O=C(CN1C(=O)c2ccccc2S1(=O)=O)NCCSc1ccccc1	-5	1
CCC(C)C(C)(O)CNC(=O)CCN1C(=O)c2ccc(C)cc2C1=O (stereo not drawn)	8	8
CCOC(=O)c1cnc2ccc(C)cc2c1N1CCCC(C(N)=O)C1 (stereo not drawn)	-12	-13
CN(Cc1cccc(F)c1)C(C(=O)NC1CC1)c1ccccc1 (stereo not drawn)	1	7
CC(=O)c1nnn(-c2nonc2-n2cccc2)c1C	-5	-9
Cc1cc(C(C)(C)C)cc(C)c1S(=O)(=O)N1CCN(Cc2nc3ccccc3c(=O)[nH]2)CC1	4	1
CCc1ccc(OCC(=O)OC(C)C(=O)Nc2ccccc2C)cc1 (stereo not drawn)	-3	-5
O=C(CCN(Cc1ccco1)c1nc(C2CC2)nc2ccccc12)N1CCCC1	-3	7
CCN(CC)C(=O)c1cc(-c2ccc(OC)cc2)nc2cc(-c3ccc(Cl)cc3)nn12	-4	3
O=C(NCC(O)CO)c1c(I)c(C(=O)NCC(O)CO)c(I)c(N(CCO)C(=O)CO)c1I (stereo not drawn)	-1	-2

Structures above with bromine, in the order listed:
Compound	NPYLR7 agonist	NPYLR7 agonist max-min
C=CCNC(=O)NCc1ccc(Br)cc1F	13	11
Cn1c(NNC(=O)c2cc(Br)ccc2Cl)cc(=O)n(C)c1=O	6	5
CC(O)c1cnc(-c2ccc(Br)cc2)s1 (stereo not drawn)	6	4
